Bioassay records as filed in PubChem.
RE007 growth inh: less growth of the S. pombe RE007 Vpr strain; S. pombe RE007 Vpr strain, BacTiter-Glo ATP luminescence, 24 h; control for the full effect not named in the record; Potency, µM (doses to about 92.2 µM), without a hit: at the top dose activity change, negative = less growth; 360,000 tested, 0.21% active; active = well fitted falling curve with a large enough effect; inconclusive = small, poorly fitted or top-dose-only effect; inactive = no such curve, though single readings can be large or run the other way;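 further: on the % scale 0 is the no-effect control and ±100 the full control effect; nearly all actives have a fitted effect of over 50% in size; the assay follows cell death caused by Vpr and the record does not say whether a fall means rescue or toxicity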
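Fission yeast strain RE007, carrying one chromosomally integrated HIV-1 vpr copy, was seeded at OD 0.01 in PMG+AL medium with 23 nL pinned compound. After 24 h at 30 °C and 99% humidity, viability was read by BacTiter-Glo luminescence.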
Lassa entry inh: blocks Lassa virus binding to or entry into cells; Lassa virus pseudotype entry inhibition, cell reporter; control for the full effect not named in the record; Potency, µM (titrated, usually from 37.9 µM), for the others: top-dose activity change, negative = inhibition, most hits filed as inhibitors; 300,000 tested, 1.2% active; AID 540256; active means well fitted inhibition curve with a large enough effect; inconclusive means small, poorly fitted or top-dose-only effect, or effect the other way; inactive means flat fitted curve, though single readings scatter; tested in HEK293 cells; further: on the % scale 0 is the no-effect control and ±100 the full control effect; nearly all actives have a fitted effect of over 50% in size; luciferase read-out
Cruzain inh noDet: inhibitors of Trypanosoma cruzi cruzain without detergent | AID 1476 | purified cruzain, Z-FR-AMC fluorescence, no detergent | P25779 | 200,000 tested, 2.3% active | Potency, µM, without a hit: max response, negative = inhibition, hits mostly inhibitors; active means well fitted curve in the direction sought with a large enough effect; inconclusive means small, poorly fitted or top-dose-only effect, or another doubt; inactive means no such curve, though single readings can be large; an effect the other way counts as inactive or inconclusive;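 further: plate controls were enzyme without inhibitor for no effect and buffer without enzyme for full effect; nearly all actives have a fitted effect of over 40% in size; top concentration of the series not given in the record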
Target sequence (P25779 123-467 limits assumed): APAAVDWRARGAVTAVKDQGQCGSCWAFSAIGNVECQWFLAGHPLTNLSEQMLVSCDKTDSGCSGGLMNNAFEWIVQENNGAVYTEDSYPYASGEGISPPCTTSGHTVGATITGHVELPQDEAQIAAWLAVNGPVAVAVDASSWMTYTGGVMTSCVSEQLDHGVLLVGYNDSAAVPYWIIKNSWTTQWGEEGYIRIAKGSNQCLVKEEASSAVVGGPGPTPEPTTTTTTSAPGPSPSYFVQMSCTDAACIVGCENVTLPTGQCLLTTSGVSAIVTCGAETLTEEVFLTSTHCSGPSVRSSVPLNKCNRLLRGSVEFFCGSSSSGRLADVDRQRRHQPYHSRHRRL
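Purified cruzain at 1.5 nM, pre-incubated 15 min with compound at room temperature in 100 mM sodium acetate pH 5.5, 5 mM DTT, 0.00005% Triton X-100. Reaction started with 2 uM Z-FR-AMC; AMC fluorescence increase over 60 s gives rate.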
MARV entry inh: Marburg virus entry inhibition; Marburg virus pseudotyped entry inhibition, cell reporter; control for the full effect not named in the record; about a third of the inactives were read at about 46 µM; Potency, µM (titrated, usually from 37.8 µM), for the others: top-dose activity change, negative = inhibition, most hits filed as inhibitors; 300,000 tested, 1.8% active; active = well fitted inhibition curve with a large enough effect; inconclusive = small, poorly fitted or top-dose-only effect, or effect the other way; inactive = flat fitted curve, though single readings scatter; tested in HEK293 cells; about a fifth of its hits are not listed in these tables; further: on the % scale 0 is the no-effect control and ±100 the full control effect; luciferase read-out
Cruzain inh Det: inhibitors of Trypanosoma cruzi cruzain with detergent. Potency, µM, without a hit: max response, negative = inhibition, actives largely listed as inhibitors. P25779. 200,000 tested, 0.43% active. AID 1478. purified cruzain, Z-FR-AMC fluorescence, 0.01% Triton; active means well fitted curve in the direction sought with a large enough effect; inconclusive means small, poorly fitted or top-dose-only effect, or another doubt; inactive means no such curve, though single readings can be large; an effect the other way counts as inactive or inconclusive;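 further: plate controls were neutral wells for no effect and buffer without enzyme for full effect; nearly all actives have a fitted effect of over 40% in size; top concentration of the series not given in the record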
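Detergent-containing run (0.01% Triton X-100) in acetate buffer pH 5.5 with 5 mM DTT: enzyme at 1.5 nM final, 15 min compound preincubation at room temperature, then 2 uM Z-FR-AMC substrate. Activity taken as 60 s fluorescence increase at 360/450 nm.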
StopGo reporter: FMDV 2A StopGo reporter, luciferase signal; 410,000 tested, 1.2% active; AID 1159524; Potency, µM (top dose mostly 57.9 µM), inactives show at the highest dose signal change, negative = less light; human cells with a luciferase reporter of 2A StopGo recoding; control for the full effect not named in the record; active = well fitted falling curve with a large enough effect; inconclusive = small, poorly fitted or top-dose-only effect; inactive = no such curve, though single readings can be large or run the other way; tested in HEK293T cells; further: on the % scale 0 is the no-effect control and ±100 the full control effect; nearly all actives have a fitted effect of over 45% in size; luciferase light after 4 h
NS1 inh: influenza NS1 inhibition; S. cerevisiae slowed by influenza A NS1, growth recovery by OD600; Potency, µM (top dose mostly 46.1 µM), for inactives: at the highest dose activity, positive = more growth; 270,000 tested, 0.4% active; AID 2326; further: actives are rising curves; nearly all actives have a fitted effect of over 50% in size
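S. cerevisiae expressing influenza A NS1, grown in glucose, washed, then diluted 1:100 into pH 6.0 -URA galactose medium with 23 nl compound. Growth recovery read as OD600; NS1-free strain serves as control.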
SARS PLpro yeast: blocks SARS-CoV papain-like protease in a yeast assay; S. cerevisiae expressing SARS-CoV PLpro, growth rescue; control for the full effect not named in the record; Potency, µM (doses to about 32.9 µM), without a hit: top-dose activity, positive = growth rescue; 330,000 tested, 0.19% active; further: 0% is about no effect; nearly all actives have a fitted effect of over 55% in size; growth read by luminescence after 48 h
Starred values were filed as active, the others as inactive; ? = inconclusive; / = no result given; & = joins results of further samples; [ ] = another dose, or the depositor's remark. Unless noted, the call rests on the fitted dose curve; in most records, active means well fitted rising curve with a large enough effect; inconclusive means small, poorly fitted or top-dose-only effect; inactive means no such curve, though single readings can be large or run the other way. Potency means the concentration at half of the fitted maximal effect.

SMILES	RE007 growth inh	Lassa entry inh	Cruzain inh noDet	MARV entry inh	Cruzain inh Det	StopGo reporter	NS1 inh	SARS PLpro yeast
Cc1ccc(N(CC(=O)N2CCN(Cc3ccccc3)CC2)S(C)(=O)=O)cc1C	24%	/	/	/	/	-20%	1%	1%
Cc1cc(C)nc(Sc2ccc([N+](=O)[O-])cc2[N+](=O)[O-])n1	-11%	?	2%	?	-2.5%	7.1µM*	10%	1%
COc1ccc(Cc2nnc(SCC(=O)Nc3ccc(C)cc3C)[nH]c2=O)cc1	-2%	10%[46.1 µM]	/	-1%	/	-1%	/	2%
O=C1CCN(Cc2ccc(Cl)cc2Cl)C(=O)N1	13%	7%[46.1 µM]	/	5%[46.1 µM]	/	-5%	/	/
CC(C)[C@H](NC(=O)c1cccc(CN(Cc2ccccc2)C(=O)c2ccccc2)c1)C(=O)O	11%	-10%	/	19%	/	-14%	/	/
COc1cccc(-n2nc(C(=O)N3CCN(Cc4ccccc4)CC3)c3ccccc3c2=O)c1	-9%	?	/	?	/	-4%	/	1%
COc1ccc(N2CCN(C(=O)NCc3cccc(OC)c3)CC2)cc1	1%	-6%[46.1 µM]	/	6%[46.1 µM]	/	-1%	2%	-3%
COc1ccccc1-n1c(SCC(=O)Nc2ccccc2C)nc(O)cc1=O	9%	-14%	-11%	3%	-13%	-7%	?	6%
C=CCn1c(O)c2ccc(C(=O)N=NC(=O)COc3ccc(OC)cc3)cc2c1O	-6%	-3%	/	10%	/	-7%	10%	0%
CC1(NC(=O)C2CCN(C(=O)Nc3ccccc3)CC2)CCS(=O)(=O)C1 (centres undefined)	10%	12%	/	-2%[46.1 µM]	/	4%	2%	2%
N#Cc1c(-c2ccccc2)nc(SCC(=O)Nc2ccc(OC(F)(F)Cl)cc2)[nH]c1=O	18%	/	/	/	/	-21%	5%	3%
CCOCCCNC(=O)c1cc(Sc2nnc(C)s2)nc2ccccc12	2%	12%	/	1%	/	-15%	-1%	-1%
O=[N+]([O-])c1cccnc1SCc1ccccc1	12%	/	/	/	/	0%	-1%	0%
COc1ccc(N2CCN(C(=S)Nc3cccc(C)c3C)CC2)cc1	-6%	0%	-8%	10%	3.7%	/	7%	?
Cc1ccc(NC(=S)N(Cc2cccs2)Cc2cc3cc(C)cc(C)c3[nH]c2=O)cc1	8%	?	25µM*	2%	-4.1%	-19%	2%	6%
CC(C)C[C@H](NC(=O)C1CCN(S(=O)(=O)c2ccccc2)CC1)C(=O)NCc1ccccn1	-5%	-1%[46.1 µM]	/	-18%[46.1 µM]	/	-15%	-20%	-3%
CC(C)NC(=S)Nc1c(N)[nH]c(=O)[nH]c1=O	1%	/	/	/	/	-15%	-3%	0%
Cc1ccc(N2CCN(S(=O)(=O)c3ccc4c(c3)NC(=O)C(C)C(=O)N4)CC2C)cc1 (centres undefined)	-11%	/	/	/	/	0%	13%	-1%
CS(=O)(=O)c1ccc2nc(N)sc2c1	7%	7%	-12%	12%	8.4%	12%	3%	12%
COc1cccc(NC(=O)Cc2ccc(C)cc2)c1	-10%	-5%	7%	-1%[46.1 µM]	6.2%	12%	-59%	5%

Brought forward from above: 4 entries; new compounds follow.
SMILES	RE007 growth inh	Lassa entry inh	Cruzain inh noDet	MARV entry inh	Cruzain inh Det	StopGo reporter	NS1 inh	SARS PLpro yeast
CC(C)NC(=S)Nc1c(N)[nH]c(=O)[nH]c1=O	1%	/	/	/	/	-15%	-3%	0%
Cc1ccc(N2CCN(S(=O)(=O)c3ccc4c(c3)NC(=O)C(C)C(=O)N4)CC2C)cc1 (centres undefined)	-11%	/	/	/	/	0%	13%	-1%
CS(=O)(=O)c1ccc2nc(N)sc2c1	7%	7%	-12%	12%	8.4%	12%	3%	12%
COc1cccc(NC(=O)Cc2ccc(C)cc2)c1	-10%	-5%	7%	-1%[46.1 µM]	6.2%	12%	-59%	5%
CC1=C(C#N)C(/C=N/OCc2ccc(F)cc2Cl)CC(=O)N1 (centres undefined)	-6%	?	/	8%[14.2 µM]	/	44%[activator]	/	4%
COCn1ccnc1C(O)(c1ccc(OC)cc1)c1ccc(OC)cc1	2%	17%	-5%	-22%	0.8%	-21%	2%	-7%
CC1(C)Cc2nc3nc(SCC(=O)Nc4ccccc4)nc(N)c3cc2CO1	-11%	?	/	?	/	30%[activator]	8%	0%
CCn1c2ccccc2c2cc(NC(=O)c3cccc(OC)c3OC)ccc21	0%	?	?	4%	-3.7%	-5%	?	-24%
CCc1nc2ccc(C(=O)N(C)CC(=O)Nc3ccc(Cl)c(C(F)(F)F)c3)cc2nc1CC	-3%	-45%	/	?	/	?	/	-2%
NC(=O)C1CCN(c2oc(-c3cccs3)nc2S(=O)(=O)c2ccc(Cl)cc2)CC1	6%	?	/	?	/	-1%	/	0%
CC1CCN(CC(O)COc2ccc(C(=O)c3ccccc3)cc2)CC1 (centres undefined)	-3%	/	/	/	/	-19%	12%	14%
CC1(C)CC(=O)C(N=Nc2ccc(S(=O)(=O)N3CCOCC3)cc2)=C(O)C1	-9%	10%	/	-20%[46.1 µM]	/	-2%	12%	2%
COc1ccc(C2C(=O)N(C3CCCCC3)CC(=O)N2CCc2ccc(C)cc2)cc1OC (centres undefined)	/	?	15%	/	1.1%	-14%	/	/
O=C1c2ccccc2C(=O)N1Cc1nc2ccccc2o1	22%	0%	-1%	1%	0.6%	-4%	-7%	1%
CCC(C)N1C(=O)S/C(=C/c2ccc(N3CCOCC3)cc2C)C1=O (centres undefined)	-24%	?	-17%	-1%[46.1 µM]	-4.8%	12%	19%	-20%
CN(C)C(CNc1ncnc2sc3c(c12)CCCC3)c1ccco1 (centres undefined)	-13%	1%	/	?	/	-12%	/	0%
CCNC(=O)C1CC(=O)N(c2ccc(OCC)cc2)C1 (centres undefined)	14%	?	4%	-2%	1.3%	0%	2%	-1%
CCCN(CC1CC1)C(=O)COC(=O)c1[nH]c(C)c(C(=O)OCC)c1C	21%	?	?	-24%	-1.3%	-19%	-16%	-2%
CC(C)c1ccc(N(C(=O)c2ccco2)C(C(=O)NC2CCCC2)c2ccncc2)cc1 (centres undefined)	0%	-16%	/	?	/	63%[activator]	-1%	0%
CC(C)CCNC(=O)c1ccc(NC(=O)C2=CSCCO2)cc1	-8%	/	/	/	/	57%[activator]	8%	2%
COc1cc2oc(=O)cc(-c3cccc(-c4cccc(C)c4)c3)c2c(OC)c1OC	10%	/	-6%	/	-2.0%	-2%	/	15%
CC(=O)N1CCN(C(=O)CSc2nc3c(cnn3-c3ccccc3)c(=O)[nH]2)CC1	-4%	-5%	10%	12%	9.9%	-23%	-2%	2%
Cc1ccccc1NC(=O)Cn1c(C)nc2ccc(N)cc2c1=O	5%	7%	10%	3%	-8.6%	-24%	-6%	-10%
Cc1cc(C)c(C#N)c(Nc2ccccc2)n1	0%	2%	-5%	-12%	-1.6%	10%	6%	10%

Structures from the list above containing a thiophene ring, fused or not, in the order listed:
SMILES	RE007 growth inh	Lassa entry inh	Cruzain inh noDet	MARV entry inh	Cruzain inh Det	StopGo reporter	NS1 inh	SARS PLpro yeast
Cc1ccc(NC(=S)N(Cc2cccs2)Cc2cc3cc(C)cc(C)c3[nH]c2=O)cc1	8%	?	25µM*	2%	-4.1%	-19%	2%	6%
NC(=O)C1CCN(c2oc(-c3cccs3)nc2S(=O)(=O)c2ccc(Cl)cc2)CC1	6%	?	/	?	/	-1%	/	0%
CN(C)C(CNc1ncnc2sc3c(c12)CCCC3)c1ccco1 (centres undefined)	-13%	1%	/	?	/	-12%	/	0%

Remaining list, next part
SMILES	RE007 growth inh	Lassa entry inh	Cruzain inh noDet	MARV entry inh	Cruzain inh Det	StopGo reporter	NS1 inh	SARS PLpro yeast
O=C(NC1(C(F)(F)F)NC(=O)N(Cc2cccnc2)C1=O)c1ccncc1 (centres undefined)	20%	12%	-6%	-1%	5.4%	/	-7%	-7%
COc1ccc(-c2noc(CSc3nnc(-c4ccccc4)n3C)n2)cc1	-8%	?	-22%&9%	?	-5.5%&0.5%	-5%&15%	-52%	-3%
Cn1nnnc1SCC(=O)Nc1cc(C(=O)O)cc(C(=O)O)c1	0%	11%	-3%	-4%	7.5%	-7%	2%	-5%
O=C(CCCC(=O)c1ccccc1)NCCc1ccccc1F	9%	/	/	/	/	-5%	-9%	1%
Cc1ccc(C(=O)OCC(=O)N(CC(C)C)c2c(N)n(Cc3ccccc3)c(=O)[nH]c2=O)s1	1%	-21%	/	?	/	-2%	-6%	2%
CCOc1ccc2[nH]cc(C(=O)N3CCN(CC)CC3)c(=O)c2c1	0%	-28%	-15%	0%	-2.1%	3%	-8%	0%
COc1ccccc1NC(=O)c1ccc(NS(C)(=O)=O)cc1	10%	21%	-2%	0%	5.7%	/	-1%	-2%
COc1ccc(Cl)cc1Nc1ncnc2sc(C)c(S(=O)(=O)N3CCC(C)CC3)c12	-3%	3%	?	18%	-12%	?	5%	4%
COc1ccc(-c2c(-c3ccc(OC)c(C)c3O)n[nH]c2C)cc1	35%	?	/	-6%[46.1 µM]	/	31%	-28%	5%
O=C(Cn1c(CN2CCCCC2)nc2ccccc2c1=O)Nc1ccccc1	-16%	-18%	14%	-17%	2.2%	/	-5%	7%
CC1=C(C(=O)Nc2ccc(Cl)cc2)C(c2ccco2)NC(=O)N1 (centres undefined)	17%	-6%	2%	-19%	3.5%	0%	-3%	4%
Cc1cccc(-c2nc(CN3CCCC(C(=O)NC4CCC(C)CC4)C3)c(C)o2)c1 (centres undefined)	12%	-18%	6%	?	5.4%	-22%	-9%	-6%
COc1ccc(C(=O)NC(=O)CSc2n[nH]c(N)n2)cc1	-4%	-1%[46.1 µM]	/	27%[46.1 µM]	/	12%	/	13%
CC(C)(CO)NC(=O)Nc1ccc(Cl)c(Cl)c1	23%	?	/	24%[46.1 µM]	/	6%	4%	0%
C=CCN(c1ccccc1OC)S(=O)(=O)c1cccc(C(=O)OCC(=O)c2c(N)n(C)c(=O)n(C)c2=O)c1	11%	?	/	?	/	40µM*	/	/
